Bst PK mod = Pyruvate Kinase; partly purified Bacillus stearothermophilus pyruvate kinase, luminescence ATP production; ribose 5-phosphate activator present at AC10; Potency, µM; 51,000 compounds, 1.2% hits; in the data active means potency below about 11 µM; inconclusive means mostly about 12 µM to 25 µM; inactive means weaker than that;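 the screen sought inhibitors and activators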;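 also: potency is read from the fitted curve at half-maximal effect; scaled between full activation by ribose 5 phosphate and full inhibition by luteolin; about four in five hits inhibit and the cells do not say which; series up to 57 µM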
TsaE inh = qHTS Assay for Inhibitors of YjeE. tRNA threonylcarbamoyladenosine biosynthesis protein TsaE (Escherichia coli (strain …. purified YjeE, fluorescence polarisation of a bound ADP probe. Potency, µM. 71,000 compounds, 0.05% hits; active = well fitted falling curve; inconclusive = weaker or top-dose-only fall, or a rising curve; inactive = flat or poorly fitted curve;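 also: top concentration of the series not given in the record; excess ADP was the control for the full effect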
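Purified YjeE (10 uM) with BODIPY Texas Red-labeled ADP probe (2 uM); compounds pin-transferred, 15 min at room temperature. Binding inhibition read as decreased fluorescence polarization; ADP titration as control.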
Active calls of the source: *; i = inactive; ? = inconclusive; · = not tested or not shown.

SMILES | Bst PK mod | TsaE inh
CC[C@H](C)[C@H](NS(=O)(=O)c1ccc(C)cc1)C(=O)N1CCC(C(=O)N[C@H](C(=O)O)C(C)C)CC1 | >57 | i
COc1ccc(C)cc1NC(=O)c1ccc(S(=O)(=O)N2CCOCC2)cc1 | >57 | i
COc1cc2c(cc1OC)-c1cc(Nc3ccc4c(c3)OCCO4)nc(=O)n1CC2 | · | i
Cc1cc(C(F)F)n2nc(C(=O)Nc3cc(C)on3)nc2n1 | >57 | i
CCc1ccc(-c2nc(CN3CCCC(C(=O)O)C3)c(C)o2)cc1 (stereo not drawn) | · | i
N#CCCN(Cc1cccnc1)S(=O)(=O)c1ccc(S(=O)(=O)NC2CCCCC2)cc1 | >57 | i
CC(C)C12CC[C@@]3(CC[C@H]4[C@@](C)(CCC[C@]4(C)C(=O)O)[C@@H]3C1)[C@@H](CN)C2 | · | i
O=C(NCc1cccnc1)c1ccc(CS(=O)(=O)c2ccc(Cl)cc2)o1 | >57 | i
CCOC(=O)C1CCCN(c2cc(=O)n(Cc3ccc(F)cc3)c(=O)[nH]2)C1 (stereo not drawn) | >57 | i
CC(=O)N1CCN(C(=O)c2cccc(S(=O)(=O)Nc3ccc(C)cc3)c2)CC1 | >57 | i
COc1ccc(N2CCN(CCNC(=O)CCNS(=O)(=O)c3cccs3)CC2)cc1 | >57 | i
CCN(CC)CCCN1C(=O)C(O)=C(C(C)=O)C1c1cccc(OC)c1 (stereo not drawn) | >57 | i
Cc1ccc(-c2noc(CCC(=O)NCCCN3CCN(c4cccc(Cl)c4)CC3)n2)cc1 | >57 | i
Cc1cc(NC(=O)CSCc2nc(-c3cccc(Cl)c3)oc2C)no1 | · | i
CN(C)C(CNC(=O)c1cccnc1Sc1ccccc1)c1ccco1 (stereo not drawn) | >57 | i
CCC(C)NC(=O)Cn1c(=O)n(CCCCC(=O)NCc2ccco2)c(=O)c2ccccc21 (stereo not drawn) | >57 | i
CCOCCCn1c(=N)c(C(=O)NCc2ccc3c(c2)OCO3)cc2c(=O)n3ccccc3nc21 | >57 | i
N#Cc1c(N)c(C#N)c(-c2ccc3c(c2)OCO3)c2c1CCCC2 | · | i
COC(=O)CSc1nc2nc(C)cc(C)n2n1 | · | i
c1ccc2c(c1)nnn2-c1ncnc2sc3c(c12)CCCC3 | >57 | i
O=C(O)c1ccc(C(=O)O)cc1 | · | i
Cc1cc(C(C)c2ccccc2)c(O)c(CN2CCOCC2)c1C (stereo not drawn) | >57 | i
O=C(COc1cccc2cccnc12)N1CCc2ccccc2C1 | · | i
c1ccc(COc2ccc(OCCCn3cncn3)cc2)cc1 | · | i

Single records, from the list above:
O=C(COc1cccc2cccnc12)N1CCc2ccccc2C1 across the screens: Bst PK mod: ·; TsaE inh: i
N#Cc1c(N)c(C#N)c(-c2ccc3c(c2)OCO3)c2c1CCCC2 across the screens: Bst PK mod: ·; TsaE inh: i

The listing continues:
SMILES | Bst PK mod | TsaE inh
Cc1ccc(C(=O)/C=C/Nc2ccccn2)cc1 | 0.75* | ·
Cc1ccccc1-n1c(SCC(=O)c2cc(C)n(C)c2C)nnc1-c1ccncc1 | >57 | i
O=C(O)c1cccc(OCc2ccccc2Cl)c1 | >57 | i
O=C(Nc1ncc(Cc2ccccc2)s1)C1CCCO1 (stereo not drawn) | · | i
CCC(C)(C)n1nnnc1C(c1cc2ccc(C)cc2[nH]c1=O)N(Cc1cccnc1)Cc1ccco1 (stereo not drawn) | >57 | i
Cc1noc(NS(=O)(=O)c2ccc(NC(=O)CSc3nc4ccccc4s3)cc2)c1C | · | i
O=c1[nH]c2c(s1)C=Nc1ccccc1N2 | · | i
COc1cccc(CNC(=O)c2ccc(NC(=O)C3CCCO3)cc2)c1 (stereo not drawn) | >57 | i
CCc1nnc(NC(=O)c2ccc(S(=O)(=O)N(CC)CC)cc2)s1 | · | i
CCOC(=O)Cn1c(=O)oc2cc(S(=O)(=O)NCCc3ccc(C)cc3)ccc21 | · | i
COC(=O)[C@@]1(Cc2ccc(F)cc2)[C@H]2c3cc(C(=O)N4CCCC4)n(Cc4ccc(S(C)(=O)=O)cc4)c3C[C@H]2CN1C(=O)c1ccccc1 | · | i
CCCN(CCC)c1nc(NC2CCN(C(=O)OCC)CC2)nc(OC)n1 | >57 | i
Cn1c(=S)c2[nH]c(SCCN3CCCC3)nc2n(C)c1=O | · | i
CC(=O)c1cccc(S(=O)(=O)NCC(c2ccco2)N2CCCCC2)c1 (stereo not drawn) | >57 | i
CC1CCCC(C)N1C(=O)COC(=O)c1ccc[nH]c1=O (stereo not drawn) | >57 | i
CCN(C1CCCCC1)S(=O)(=O)c1ccc(S(=O)(=O)N2CCN(CCC#N)CC2)cc1 | · | i
COCCNC(=S)c1ccc(OC)cc1 | >57 | i
COC(=O)c1cccc(OCC(O)Cn2ccnc2)c1 (stereo not drawn) | >57 | i
CC(C)(C)C(=O)NC(=C(Cl)Cl)P(=O)(O)O | · | i
Cc1ccc(-c2nnc(-c3ccc(NC(=O)c4ccco4)cc3)o2)cc1 | >57 | i
Clc1ccc(-n2ncc3c(NCCN4CCOCC4)ncnc32)cc1 | ? | i
COC(=O)N1CC(=O)N(OC)C1c1ccc(Cl)cc1Cl (stereo not drawn) | · | i
CCC(C)OC(=O)C1=C(C)NC(=O)NC1c1ccc(F)cc1 (stereo not drawn) | · | i
N#CCCn1c(=O)cnc2cnc(N3CCNCC3)nc21 | · | i
CCCCn1c(SCC(=O)Nc2nc(C)cs2)nnc1-c1cccnc1 | >57 | i
O=C(Nc1nnc(-c2ccccc2)o1)c1ccc(Cl)cc1 | >57 | i
Cc1oc(C)c(C(=O)Nc2ccc(CC(=O)O)cc2)c1C(=O)Nc1ccc(CC(=O)O)cc1 | >57 | i
CC(Sc1nnc(-c2cc3ccccc3o2)n1-c1ccccc1)C(=O)O (stereo not drawn) | >57 | i
Cc1ccc(-c2c3c(=O)n(C)c(=O)n(C)c3cn2-n2cnnc2)cc1 | >57 | i
O=[N+]([O-])c1cccc2c[nH]nc12 | · | i
O=S1(=O)CCN2C=Nc3sc4c(c3C2=N1)CCCC4 | · | i
CCN1CCN(CC(O)COc2ccc(C)c(C)c2)CC1 (stereo not drawn) | >57 | i
COc1ccc(OC)c(CCNC(=O)Cn2sc3nc(C)cc(C)c3c2=O)c1 | · | ?
O=C1CC(NCc2ccco2)C(=O)N1CCc1ccccc1 (stereo not drawn) | >57 | i
Cn1c(=O)c(=O)n(C)c2cc(S(=O)(=O)N3CCN(c4cccc(C(F)(F)F)c4)CC3)ccc21 | >57 | i
COCCNC(=O)c1cc(-c2ccc3c(c2)OCO3)on1 | · | i
N[C@@H](Cc1ccc(O)c(O)c1)C(=O)O | · | i
CC1CCc2nc(NC(=O)CN3CCN(Cc4ccc5c(c4)OCO5)CC3)sc2C1 (stereo not drawn) | >57 | i
CCCCN(CC)C(=O)c1ccc(Cl)c(Cl)c1 | >57 | i
Cc1ccc(C(=O)Nc2nc(COc3ccccc3)cs2)s1 | · | i
COC(=O)CSc1nc2cc(OC)ccc2cc1C#N | i | i
c1c2c(cc3sc(N4CCCCC4)nc13)OCCO2 | 1.5* | i
CCOC(=O)N1CCN(C(=O)c2ccc(N3C(=O)CCC3=O)cc2)CC1 | >57 | i
CCN(Cc1ccccc1)C(c1cccc(C#N)c1)c1nnnn1C(C)(C)C (stereo not drawn) | >57 | i
Cc1nnc(N)nc1C | >57 | i
COc1ccc(-c2csc(N3CCOCC3)n2)cc1OC | i | i
CCOc1ccc2nc(NC(=O)CSc3nc4c(c(=O)n(C)c(=O)n4C)n3CC)sc2c1 | >57 | i
Cc1cccc(C#Cc2ccccc2)n1 | · | i
CCN(CC)CCN1C(=O)C(O)=C(C(=O)c2cc3ccccc3o2)C1c1cccnc1 (stereo not drawn) | >26 | ·
CCCCC[C@H](O)c1cccc(OCc2ccc3ccccc3n2)c1 | · | i
Cc1ccc(OCCn2ccc(=O)[nH]c2=O)cc1C | >57 | i
CS(=O)(=O)N1CCC(C(=O)Nc2ccccc2F)CC1 | >57 | i
Cc1cccc(CN(C)CCc2ccccn2)c1 | · | i
O=C1c2ccccc2C2(c3ccccc3)NCCN12 (stereo not drawn) | >57 | i
c1cncc(Nc2nc(-c3ccncc3)cs2)c1 | i | i
Cc1ccccc1NS(=O)(=O)c1ccc2[nH]cc(C(=O)N(C)Cc3ccco3)c(=O)c2c1 | >57 | i

The list continues:
SMILES | Bst PK mod | TsaE inh
CN(C)CCOC(c1ccccc1)c1ccccc1 | >26 | i
O=C(O)C1CC(=O)N(Cc2cccs2)C1 (stereo not drawn) | >26 | ·
O=C(NCc1ccccn1)c1ccc2nc(-c3ccco3)c(-c3ccco3)nc2c1 | >11 | i
CCc1cc2c(CN3CCN(CC)CC3)cc(=O)oc2cc1O | >57 | i
CC1(C)CC(C#N)(N2CCOCC2)CCO1 (stereo not drawn) | >57 | i
CC1(C)CC(NC(=O)C23CCC(C)(/C(=N/O)C2)C3(C)C)CC(C)(C)N1 (stereo not drawn) | >26 | ·
O=C(c1ccc2nc(N3CCOCC3)sc2c1)N1CCN(C(=O)c2ccco2)CC1 | · | i
CCOC(=O)N1CCN(C(=O)c2cc(-c3ccc(F)cc3)[nH]c2C)CC1 | >57 | i

Pulled by compound from the list above, four records:
SMILES | Bst PK mod | TsaE inh
CC1(C)CC(C#N)(N2CCOCC2)CCO1 (stereo not drawn) | >57 | i
O=C(NCc1ccccn1)c1ccc2nc(-c3ccco3)c(-c3ccco3)nc2c1 | >11 | i
O=C(c1ccc2nc(N3CCOCC3)sc2c1)N1CCN(C(=O)c2ccco2)CC1 | · | i
CCc1cc2c(CN3CCN(CC)CC3)cc(=O)oc2cc1O | >57 | i

Further results follow:
SMILES | Bst PK mod | TsaE inh
O=C(O)C/C=C\CC(=O)O | · | i
CCOCC(O)CSCc1ccc(Cl)cc1 (stereo not drawn) | · | i
Cc1nn(Cc2ccc(Cl)cc2)c(C)c1NC(=O)c1cc(-c2ccc3c(c2)OCO3)on1 | >57 | i
Cc1[nH]c2ccccc2c1C1=CN2CCS(=O)(=O)N=C2S1 | >57 | i
CCN1CCN(Cc2ccc(OCc3ccccc3)cc2)CC1 | · | i
CC(=O)O[C@@H]1CC[C@]2(C)[C@H]3CC[C@]4(C)[C@H](C[C@H]5CCCC[C@@]54C(C)=O)[C@@H]3CC(=O)[C@@]2(O)C1 | · | i
Fc1cccc(Cl)c1Cn1nnc(-c2ccc3c(c2)OCO3)n1 | >57 | i
CCN1CCCC1CNC(=O)c1cc2c(-c3ccc(Cl)cc3)nn(C)c2s1 (stereo not drawn) | · | i
COc1ccc(C2/C(=C(/O)c3ccccc3)C(=O)C(=O)N2CCN2CCOCC2)c(OC)c1 (stereo not drawn) | >57 | i
COc1cc(Cl)c(C)cc1NC(=O)CSc1nc2ccccc2o1 | >57 | i
CCn1c(CN2CCN(C(=O)c3ccco3)CC2)nc2c1c(=O)n(C)c(=O)n2C | >57 | i
O=C(CSc1n[nH]c(-c2ccncc2)n1)c1ccccc1 | >57 | i
C=CCC(C#Cc1ccccc1)N(C)C (stereo not drawn) | >57 | i
COc1ccc(NC(=O)CN(C)S(=O)(=O)c2cccc3cccnc23)cc1 | · | i
Cc1ccsc1C(=O)OCC(=O)c1cc2ccccc2o1 | · | i
NC(=O)c1oc2ccccc2c1NC(=O)c1nc2ccccc2s1 | >57 | i
Cc1ccc(OCCn2c(CCCO)nc3ccccc32)cc1 | >57 | i
c1cncc(-c2nnc3n2N=C(c2cccs2)CS3)c1 | i | i
Cn1cccc1C(=O)N1CCC2(CC1)CCN(c1ccccc1)CC2 | · | i
CN1C(=O)CC(n2c(CO)nc3ccccc32)C1=O (stereo not drawn) | >57 | i
CCC(=O)N1c2ccc(S(=O)(=O)CCC(=O)NCCC3=CCCCC3)cc2CC1C (stereo not drawn) | >57 | i
COc1ccccc1CN1CC2(CCN(C(=O)c3ccncc3)CC2)C1 | · | i
Clc1ccc(C(c2ccccc2Cl)C(Cl)Cl)cc1 (stereo not drawn) | · | i
NC(=O)CSc1nc2ccccc2n1-c1ccccc1 | · | i
COc1ccc(OC(C)C(=O)NCc2cccnc2)cc1 (stereo not drawn) | >57 | i
COc1ccc(NC(=O)COc2ccccc2)c(OC)c1 | · | i
O=c1c2cnn(-c3ccccc3)c2nnn1Cc1ccccn1 | >57 | i
COc1ccc2c(c1)N(C[C@@H](C)CN(C)C)c1ccccc1S2 | · | i
O=C1C(Cl)=C(NCC2CCCO2)C(=O)N1CCc1ccccc1 (stereo not drawn) | >57 | i
Cn1c2c(c(=O)n(C)c1=O)CN(CCCN1CCOCC1)CN2 | >57 | i
CCn1ncc(NC(=O)Nc2cccc(C(F)(F)F)c2)c1C(N)=O | >57 | i
O=C1c2ccccc2C(=O)C1c1ccc2ccccc2n1 | 1.1* | i
COc1ccc(OC)cc1 | · | i
O=C(CCCCCn1c(=O)[nH]c2ccsc2c1=O)N1CCCCC1 | >57 | i
CN(C)CCCn1cnc2cc(Cl)c(Cl)cc21 | · | i
CCC(c1nnnn1Cc1ccc(F)cc1)N1CCN(C2CCCCC2)CC1 (stereo not drawn) | >57 | i
Cc1cnc(CNc2ncncc2-c2cccnc2)cn1 | · | i
c1cn2cc(CSC3CCCCC3)nc2s1 | >57 | i

Only part of the results is shown (hit frequency here may not be typical).
